Cruzain inh Det = inhibitors of Trypanosoma cruzi cruzain with detergent; purified cruzain, Z-FR-AMC fluorescence, 0.01% Triton; 200,000 tested, 0.43% active; AID 1478; Potency, µM, inactives show max response, negative = inhibition, hits mostly inhibitors; active = well fitted curve in the direction sought with a large enough effect; inconclusive = small, poorly fitted or top-dose-only effect, or another doubt; inactive = no such curve, though single readings can be large; an effect the other way counts as inactive or inconclusive;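 also: plate controls were neutral wells for no effect and buffer without enzyme for full effect; nearly all actives have a fitted effect of over 40% in size; top concentration of the series not given in the record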
Target sequence (P25779 123-467 limits assumed): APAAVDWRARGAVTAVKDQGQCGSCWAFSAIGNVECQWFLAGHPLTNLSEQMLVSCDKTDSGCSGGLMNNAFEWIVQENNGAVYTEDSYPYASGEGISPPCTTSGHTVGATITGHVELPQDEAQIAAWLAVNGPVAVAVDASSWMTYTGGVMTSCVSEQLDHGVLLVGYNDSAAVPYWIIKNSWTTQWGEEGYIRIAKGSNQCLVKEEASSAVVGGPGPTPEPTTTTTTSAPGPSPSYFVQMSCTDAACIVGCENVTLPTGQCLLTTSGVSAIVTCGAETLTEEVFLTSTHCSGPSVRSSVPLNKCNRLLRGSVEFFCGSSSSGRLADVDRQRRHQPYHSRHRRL
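Compounds were screened in titration against cruzain (1.5 nM) with 0.01% Triton X-100 to counter colloidal aggregation. Activity was the AMC fluorescence increase over 60 s after adding 2 uM Z-FR-AMC at pH 5.5.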
Cruzain inh noDet = blocks cruzain activity in detergent-free assay. P25779. purified cruzain, Z-FR-AMC fluorescence, no detergent. Potency, µM, without a hit: max response, negative = inhibition, actives largely listed as inhibitors. 200,000 tested, 2.3% active; active = well fitted curve in the direction sought with a large enough effect; inconclusive = small, poorly fitted or top-dose-only effect, or another doubt; inactive = no such curve, though single readings can be large; an effect the other way counts as inactive or inconclusive;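 also: plate controls were enzyme without inhibitor for no effect and buffer without enzyme for full effect; nearly all actives have a fitted effect of over 40% in size; top concentration of the series not given in the record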
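Purified cruzain at 1.5 nM, pre-incubated 15 min with compound at room temperature in 100 mM sodium acetate pH 5.5, 5 mM DTT, 0.00005% Triton X-100. Reaction started with 2 uM Z-FR-AMC; AMC fluorescence increase over 60 s gives rate.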
Lassa entry inh = blocks Lassa virus binding to or entry into cells; 300,000 tested, 1.2% active; Lassa virus pseudotype entry inhibition, cell reporter; control for the full effect not named in the record; Potency, µM (titrated, usually from 37.9 µM), for the others: at the highest dose activity change, negative = inhibition, usual class: inhibitors; active means well fitted inhibition curve with a large enough effect; inconclusive means small, poorly fitted or top-dose-only effect, or effect the other way; inactive means flat fitted curve, though single readings scatter; tested in HEK293 cells; also: % is scaled to controls: 0 for no effect and ±100 for the full control effect; nearly all actives have a fitted effect of over 50% in size; luciferase read-out
SARS PLpro yeast = blocks SARS-CoV papain-like protease in a yeast assay; S. cerevisiae expressing SARS-CoV PLpro, growth rescue; control for the full effect not named in the record; Potency, µM (titrated, usually from 32.9 µM), for inactives: at the top dose activity, positive = growth rescue; 330,000 tested, 0.19% active; also: 0% is about no effect; nearly all actives have a fitted effect of over 55% in size; growth read by luminescence after 48 h
RE007 growth inh = less growth of the S. pombe RE007 Vpr strain; S. pombe RE007 Vpr strain, BacTiter-Glo ATP luminescence, 24 h; control for the full effect not named in the record; Potency, µM (top dose mostly 92.2 µM), for inactives: top-dose activity change, negative = less growth; 360,000 tested, 0.21% active; active = well fitted falling curve with a large enough effect; inconclusive = small, poorly fitted or top-dose-only effect; inactive = no such curve, though single readings can be large or run the other way;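 also: % is scaled to controls: 0 for no effect and ±100 for the full control effect; nearly all actives have a fitted effect of over 50% in size; the assay follows cell death caused by Vpr and the record does not say whether a fall means rescue or toxicity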
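Fission yeast strain RE007, carrying one chromosomally integrated HIV-1 vpr copy, was seeded at OD 0.01 in PMG+AL medium with 23 nL pinned compound. After 24 h at 30 °C and 99% humidity, viability was read by BacTiter-Glo luminescence.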
MARV entry inh = Marburg virus entry inhibition; 300,000 tested, 1.8% active; Potency, µM (top dose mostly 37.8 µM), inactives show at the highest dose activity change, negative = inhibition, actives largely listed as inhibitors; Marburg virus pseudotyped entry inhibition, cell reporter; control for the full effect not named in the record; about a third of the inactives were read at about 46 µM; active = well fitted inhibition curve with a large enough effect; inconclusive = small, poorly fitted or top-dose-only effect, or effect the other way; inactive = flat fitted curve, though single readings scatter; tested in HEK293 cells; about a fifth of its hits are not listed in these tables; also: % is scaled to controls: 0 for no effect and ±100 for the full control effect; luciferase read-out
NS1 inh = blocks influenza NS1 protein function | S. cerevisiae slowed by influenza A NS1, growth recovery by OD600 | Potency, µM (titrated, usually from 46.1 µM), for the others: at the top dose activity, positive = more growth | 270,000 tested, 0.4% active; also: actives are rising curves; nearly all actives have a fitted effect of over 50% in size
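S. cerevisiae expressing influenza A NS1, grown in glucose, washed, then diluted 1:100 into pH 6.0 -URA galactose medium with 23 nl compound. Growth recovery read as OD600; NS1-free strain serves as control.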
StopGo reporter = lowers the luciferase signal of an FMDV 2A StopGo reporter; AID 1159524; 410,000 tested, 1.2% active; human cells with a luciferase reporter of 2A StopGo recoding; control for the full effect not named in the record; Potency, µM (doses to about 57.9 µM), for inactives: at the highest dose signal change, negative = less light; active = well fitted falling curve with a large enough effect; inconclusive = small, poorly fitted or top-dose-only effect; inactive = no such curve, though single readings can be large or run the other way; tested in HEK293T cells; also: % is scaled to controls: 0 for no effect and ±100 for the full control effect; nearly all actives have a fitted effect of over 45% in size; luciferase light after 4 h
Numbers without * were called inactive; ? = inconclusive; nt = not tested or not shown; [ ] = dose if it differs, or a comment. Unless noted, calls follow the shape of the dose curve; as a rule, active means well fitted rising curve with a large enough effect; inconclusive means small, poorly fitted or top-dose-only effect; inactive means no such curve, though single readings can be large or run the other way. Potency is read from the fitted curve at half-maximal effect.

SMILES	Cruzain inh Det	Cruzain inh noDet	Lassa entry inh	SARS PLpro yeast	RE007 growth inh	MARV entry inh	NS1 inh	StopGo reporter
COc1cc(C(=O)NNC(=O)c2cc(-c3ccccc3)n[nH]2)cc(OC)c1C	nt	nt	7%	-7%	-11%	-13%[46.1 µM]	nt	3%
CCCCn1c(=O)[nH]c(=O)c2c1nc(CN(C)Cc1cccc(OC)c1OC)n2CCC	nt	nt	-18%[46.1 µM]	0%	11%	?	-4%	?
CCOc1ccc(S(=O)(=O)N2CCN(C(=S)NCC3CCCO3)CC2)cc1 (stereo not drawn)	nt	nt	-20%	0%	-14%	22%[46.1 µM]	nt	-13%
COc1ccc(OC)c(-n2c(CN3CCC(C(N)=O)CC3)nc3ccccc3c2=O)c1	2.5%	-9%	-4%	5%	14%	6%	1%	-5%
COc1cccc(NC(=O)CNC(=O)[C@@H]2Cc3ccccc3CN2C(=O)OC(C)(C)C)c1	nt	nt	?	3%	8%	-9%[46.1 µM]	-16%	-3%
CN=C1S/C(=C\c2ccc(Cl)cc2)C(=O)N1C	nt	nt	26%	-2%	-22%	20%[46.1 µM]	-15%	18%
CN1CCN(S(=O)(=O)c2ccc3c(c2)C(C)(C)C(=O)N3C)CC1	nt	nt	nt	-4%	0%	nt	-5%	-20%
c1ccc(NCc2cccnc2)cc1	5.2%	-2%	6%	9%	2%	-1%	-2%	5%
O=C(COc1ccccc1)N/N=C/c1ccc2c(c1)OCO2	nt	nt	?	2%	13%	?	nt	67%[activator]
C=CCNc1ccc(C(=O)O)cc1	1.1%	2%	?	-11%	-2%	?	-9%	-4%
COc1ccc(Nc2ncnc3c2c(C)c(C)n3CCO)cc1	nt	nt	nt	-2%	-1%	nt	2%	12%
Cc1nn2c(N3CCOCC3)c3c(nc2c1-c1ccccc1)CCCC3	-5.4%	?	-1%	1%	-17%	-15%	-54%	0%
Cc1nnc(SCC2=C(C(=O)O)N3C(=O)C(NC(=O)COc4ccc(F)cc4)C3SC2)s1 (stereo not drawn)	nt	nt	1%	3%	2%	2%	nt	-5%
CC1(c2ccccc2)NC(=O)N(CC(=O)Nc2cc(Cl)ccc2N2CCOCC2)C1=O (stereo not drawn)	nt	nt	7%[46.1 µM]	1%	-18%	2%	nt	-10%
Cc1cccc(N2CC(O)(c3cccs3)[N+]3=C2CCCC3)c1 (stereo not drawn)	nt	nt	8%	-1%	-3%	-13%[46.1 µM]	nt	5%
COc1ccc(CN(CC(=O)NCC2CCCO2)C(=O)CCC(=O)Nc2cc(C)ccn2)cc1 (stereo not drawn)	-1.5%	0%	24%	-3%	-3%	-11%	-7%	-4%
N/C(=N\OC(=O)CCCc1ccccc1)c1ccc([N+](=O)[O-])cc1	-4.2%	-6%	3%	-50%	-13%	33%	-20%	-10%
Cc1cc(C)cc(C(=O)NCC(c2ccc(N(C)C)cc2)N2CCCC2)c1 (stereo not drawn)	0.4%	0%	?	nt	nt	nt	nt	-21%
COc1ccccc1NC(=O)N1CCC(NC(=O)C2CCCCC2)CC1	nt	nt	-11%	0%	1%	-1%[46.1 µM]	-5%	-8%
CCCC(=O)Nc1ccccc1NC(=O)CN(C)S(=O)(=O)c1ccccc1	-0.9%	7%	0%	3%	11%	-2%	7%	-12%
Cc1ccnn1CCC(=O)N1CCCC(N2CCN(c3cccc(Cl)c3)CC2)C1 (stereo not drawn)	nt	nt	nt	?	0%	nt	-3%	-16%
Fc1ccc(C2=CC(c3cccs3)n3nnnc3N2)cc1 (stereo not drawn)	nt	nt	-3%[46.1 µM]	-1%	12%	-19%[46.1 µM]	7%	15%
O=C(COC(=O)CNC(=O)c1cc(Cl)cc([N+](=O)[O-])c1)NC(=O)NCc1ccco1	nt	nt	?	0%	-16%	11%	nt	0%
CN1CCN(C(=O)CSc2nc(-c3cccs3)cc(-c3cccs3)c2C#N)CC1	-14%	-5%	?	0%	-17%	?	-48%	-11%
COc1cccc(CNC(=O)C(=O)NCC2CCCN2S(=O)(=O)c2cc(C)ccc2C)c1 (stereo not drawn)	nt	nt	-27%	-1%	10%	-17%	nt	-17%
CCCSc1nc(-n2ncc(C#N)c2N)c2c3c(sc2n1)CCC(C)C3 (stereo not drawn)	-5.4%	-8%	2%	-5%	-11%	?	3%	-19%
Oc1ccc(Br)cc1C=Nc1cccn2cc(-c3ccccc3)nc12	nt	nt	-25%[46.1 µM]	-4%	?	?	nt	-9%
Clc1ccc(Cn2cc(Br)cn2)cc1Cl	-4.3%	-4%	7%	-6%	-12%	-23%	-56%	nt
Cc1c(-c2ccccc2)n(-c2ccc(Cl)cc2)c2nc3c(c(=O)n(C)c(=O)n3C)n12	0.7%	0%	2%[46.1 µM]	nt	nt	nt	nt	-13%
COc1ccc(C(C(=O)NCC2CCCO2)N(C(=O)CNC(=O)c2cccs2)c2ccccc2)cc1OC (stereo not drawn)	nt	nt	-7%[46.1 µM]	1%	-5%	0%[46.1 µM]	-2%	-2%
COCCOC(=O)c1c(C)oc2ccc(OC(=O)c3ccc4c(c3)OCO4)cc12	-2.7%	11%	8%	-5%	-13%	?	-50%	-11%
CCN(CC(=O)NCc1ccc(F)cc1)C(=O)c1ccc(C(=O)c2ccccc2)cc1	nt	nt	?	3%	7%	-24%[46.1 µM]	4%	-19%
Cc1cccc(-n2c(SCC(=O)Nc3nnc(C)s3)nnc2-c2ccoc2C)c1	6.3%	0%	-1%	-3%	3%	?	-9%	-2%
CCOC(=O)c1c(NC(=O)CSc2nnc(-c3ccccc3)n2CC)sc(C(C)=O)c1C	-4.9%	4%	-10%	-2%	15%	?	-3%	?
O=C1CCCN1c1ccc(S(=O)(=O)Nc2cccnc2)cc1	nt	nt	11%	-3%	9%	5%[46.1 µM]	0%	-6%
Cc1c(Cl)cccc1NC(=S)NC1CCCC1	nt	nt	0%	nt	-21%	-3%	-13%	19%
NS(=O)(=O)c1ccc(NC(=O)c2ccc(S(=O)(=O)N3CCCCCC3)cc2)cc1	nt	nt	-6%	3%	13%	-1%	nt	-11%
COc1ccc(C(=O)NCc2nnc(SCC(=O)N3CCc4ccccc43)n2Cc2ccccc2)cc1	-1.9%	14%	17%	6%	1%	10%	12%	?
CN1CCCC1CCNc1ccc2c(=O)c3ccccc3oc2c1 (stereo not drawn)	nt	nt	nt	-3%	-13%	nt	0%	23%
COc1ccccc1NC(=O)Nc1nc(CC(=O)Nc2cccc(F)c2)cs1	nt	nt	-28%	0%	8%	-24%	nt	?
CCN1CCCC1CNC(=O)c1ccc(CS(=O)(=O)c2ccccc2C)o1 (stereo not drawn)	4.8%	-4%	8%	0%	-3%	8%	11%	-24%
Cc1cc(O)c(/C=N/Nc2ccc(F)cc2)c(=O)o1	nt	nt	-25%[46.1 µM]	-1%	92%	?	nt	13%
O=c1c(-c2ccc(Br)cc2)coc2c(CN3CCOCC3)c(O)ccc12	-7.9%	-12%	24%	-5%	7%	23%	-1%	3%
Cc1ccc(/C=N/n2c(C)cc(C)c(C#N)c2=O)o1	-8.4%	-21%	2%	-3%	7%	6%	-12%	-7%
CC[N+]12CCC(CC1)C(C(O)(c1ccccc1)c1ccccc1)C2 (stereo not drawn)	nt	nt	nt	0%	-9%	nt	-5%	-22%
O=C(Oc1cc(-c2ccccc2)no1)c1ccc(Cl)cc1	1.2%	-3%	2%	-5%	4%	-15%	-68%	-18%
c1ccc(C2CCC(N3CCNCC3)CC2)cc1 (stereo not drawn)	-1.4%	-10%	2%	?	-2%	?	5%	-6%
COc1ccc(-n2nc3c(c2NC(=O)CCCCl)CSC3)cc1	nt	nt	nt	-4%	-2%	nt	3%	13%
NCCCNC(=O)c1cc2ccccc2[nH]1	-4.8%	-3%	0%	1%	-1%	15%	6%	-3%
COc1ccc(-c2cc(C(F)(F)F)nc(SCC(=O)NC(C)c3ccccc3)n2)cc1 (stereo not drawn)	-4.2%	-2%	4%[46.1 µM]	nt	nt	-20%[46.1 µM]	nt	-9%
CC(=O)c1c(N2CCN(Cc3ccc4c(c3)OCO4)CC2)nc(=S)n(-c2ccccc2)c1C	-0.1%	-4%	-18%	2%	2%	-16%	-1%	-21%
Nc1c(N(Cc2ccccc2)C(=O)COc2ccc(F)cc2)c(=O)[nH]c(=O)n1Cc1ccccc1	nt	nt	-2%	2%	-1%	-17%	8%	-4%

Reprinted from the results shown, three compounds:
SMILES	Cruzain inh Det	Cruzain inh noDet	Lassa entry inh	SARS PLpro yeast	RE007 growth inh	MARV entry inh	NS1 inh	StopGo reporter
COc1ccc(-c2cc(C(F)(F)F)nc(SCC(=O)NC(C)c3ccccc3)n2)cc1 (stereo not drawn)	-4.2%	-2%	4%[46.1 µM]	nt	nt	-20%[46.1 µM]	nt	-9%
CC(=O)c1c(N2CCN(Cc3ccc4c(c3)OCO4)CC2)nc(=S)n(-c2ccccc2)c1C	-0.1%	-4%	-18%	2%	2%	-16%	-1%	-21%
Nc1c(N(Cc2ccccc2)C(=O)COc2ccc(F)cc2)c(=O)[nH]c(=O)n1Cc1ccccc1	nt	nt	-2%	2%	-1%	-17%	8%	-4%

Complete entries as entered above. Screens in order: Cruzain inh Det, Cruzain inh noDet, Lassa entry inh, SARS PLpro yeast, RE007 growth inh, MARV entry inh, NS1 inh, StopGo reporter
NCCCNC(=O)c1cc2ccccc2[nH]1 is listed as -4.8%, -3%, 0%, 1%, -1%, 15%, 6%, -3%
Cc1ccc(/C=N/n2c(C)cc(C)c(C#N)c2=O)o1 is listed as -8.4%, -21%, 2%, -3%, 7%, 6%, -12%, -7%
Cc1cc(O)c(/C=N/Nc2ccc(F)cc2)c(=O)o1 is listed as nt, nt, -25%[46.1 µM], -1%, 92%, ?, nt, 13%
COc1ccc(-n2nc3c(c2NC(=O)CCCCl)CSC3)cc1 is listed as nt, nt, nt, -4%, -2%, nt, 3%, 13%
c1ccc(C2CCC(N3CCNCC3)CC2)cc1 (stereo not drawn) is listed as -1.4%, -10%, 2%, ?, -2%, ?, 5%, -6%
